gsp agonist – agonists of gsp mutant (McCune-Albright syndrome). gsp mutant cells, cAMP HTRF, 30 min; control for the full effect not named in the record. Potency, µM (top dose mostly 76.9 µM), without a hit: top-dose activation (cAMP increase), hits mostly activators. 340,000 compounds, 0.13% hits; active = well fitted activation curve with a large enough effect; inconclusive = small, poorly fitted or top-dose-only effect, or another doubt; inactive = no such curve, though single readings can be large or run the other way; cell line not stated here;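 further: phosphodiesterase inhibitor Ro 20-1724 added with compounds to block cAMP breakdown; potency means the concentration at half of the fitted maximal effect; nearly all actives have a fitted effect of over 60% in size; about a fifth of the inactives were tested at one dose only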
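Cells stably selected in G418 were plated at 2000/well, grown 16-24 hr, then given compounds in DMSO with the PDE inhibitor […] (300 uM solution added) for 30 min at 37C; cAMP was read by HTRF.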
Six1-Eya2 blk – Six1/Eya2 interaction inhibition; Q15475+O00167; AlphaScreen GST-Six1/His-Eya2 binding, biochemical; active compounds read low; control for the full effect not named in the record; activity change, % (concentration not given with the values); 360,000 compounds, 0.56% hits; AID 651725; in the data active = activity change below about -65%; inconclusive = about -30% to -65%; inactive = above about -30%; further: on the % scale 0 is the no-effect control and ±100 the full control effect
Target sequence (O00167 whole entry, looked up): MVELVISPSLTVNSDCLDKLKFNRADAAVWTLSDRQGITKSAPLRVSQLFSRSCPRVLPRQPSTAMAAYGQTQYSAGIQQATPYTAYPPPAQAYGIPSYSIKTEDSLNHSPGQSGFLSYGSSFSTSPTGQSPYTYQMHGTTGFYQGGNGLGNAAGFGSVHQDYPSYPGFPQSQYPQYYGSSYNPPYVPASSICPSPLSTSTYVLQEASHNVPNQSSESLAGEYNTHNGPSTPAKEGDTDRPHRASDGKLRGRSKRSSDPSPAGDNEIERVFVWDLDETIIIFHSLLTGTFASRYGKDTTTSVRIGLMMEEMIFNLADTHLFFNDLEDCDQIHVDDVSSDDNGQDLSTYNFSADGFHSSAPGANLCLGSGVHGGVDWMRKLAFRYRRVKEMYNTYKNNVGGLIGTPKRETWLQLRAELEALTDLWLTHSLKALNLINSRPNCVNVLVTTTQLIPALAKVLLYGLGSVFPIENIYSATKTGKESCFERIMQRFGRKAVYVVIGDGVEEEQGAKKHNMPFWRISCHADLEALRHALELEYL
Target sequence (Q15475 whole entry, looked up): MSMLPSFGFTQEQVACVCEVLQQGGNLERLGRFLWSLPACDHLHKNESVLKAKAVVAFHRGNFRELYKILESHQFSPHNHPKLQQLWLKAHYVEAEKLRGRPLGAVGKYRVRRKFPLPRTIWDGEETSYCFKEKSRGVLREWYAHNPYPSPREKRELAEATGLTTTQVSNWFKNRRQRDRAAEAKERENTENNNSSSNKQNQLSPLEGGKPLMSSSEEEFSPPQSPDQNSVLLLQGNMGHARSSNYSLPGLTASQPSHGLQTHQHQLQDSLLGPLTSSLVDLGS
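Compounds are tested against tagged Six1 and Eya2 proteins bridged by glutathione donor and nickel acceptor beads; after a one-hour incubation at 37 °C without light, AlphaScreen emission is recorded.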
D2 ag – agonists of human D2 dopamine receptor (beta-arrestin). 360,000 compounds, 0.084% hits. P14416. DiscoveRx PathHunter D2 beta-arrestin, luminescence, 90 min; 100% = 57 uM dopamine signal. AID 624465. activation, % (concentration not given with the values); in the data active = activation above about 40%; inconclusive = about 15% to 40%; inactive = below about 15%; further: the text of the record calls up to 30% inactive
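Agonist mode: compounds alone added to overnight-plated D2 PathHunter cells for 90 min at 37 C, with 57 uM final dopamine (EC100) defining full response. Beta-arrestin recruitment detected by chemiluminescent reagent, read after 1 h at ambient temperature.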
gsp antag – antagonizes gsp, the McCune-Albright syndrome mutation; gsp-mutant cells, cAMP HTRF, 30 min; control for the full effect not named in the record; Potency, µM (top dose mostly 76.9 µM), for inactives: at the top dose activity change, negative = inhibition, hits mostly inhibitors; 340,000 compounds, 0.4% hits; active = falling curve of any shape with a large fitted effect; inconclusive = falling curve, mostly with a smaller effect; inactive = flat or rising curve; cell line not stated here;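 further: intracellular cAMP measured with PDE inhibitor Ro 20-1724 present during compound exposure; potency means the concentration at half of the fitted maximal effect; on the % scale 0 is the no-effect control and ±100 the full control effect; nearly all actives have a fitted effect of over 65% in size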
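Measurement of cellular cAMP by homogeneous time-resolved fluorescence following a 30 min compound exposure at 37C. The PDE inhibitor […] was present throughout; the assay buffer was DPBS with 0.05% BSA and 0.005% Tween 20.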
D2 potentiator – human D2 receptor positive allosteric modulation. P14416. DiscoveRx D2 beta-arrestin cells, luminescence, 90 min; 100% = 57 uM dopamine signal. potentiation, % (test concentration not listed). 360,000 compounds, 0.23% hits. AID 624464; active = potentiation of 50% or more; inconclusive = 30% to 50%; inactive = 30% or less;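 further: compound concentration not given in the record; tested on top of an EC20 dose of dopamine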
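PathHunter beta-arrestin assay in DiscoveRx D2 cells. Compounds were added with an EC20 of dopamine (50 nM final) for 90 min at 37 deg C. Luminescence was read 1 h after detection reagent, with 57 uM dopamine as the EC100 control.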
CtBP-E1A blk – blocks the CtBP interaction with E1A; AlphaScreen GST-E1A/His-CtBP binding, 1536-well; active compounds read low; control for the full effect not named in the record; activity change, % (concentration not given with the values); 340,000 compounds, 0.49% hits; in the data active means activity change below about -65%; inconclusive means about -30% to -65%; inactive means above about -30%; further: on the % scale 0 is the no-effect control and ±100 the full control effect
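Protein mix (5X: 125 nM each GST-E1A, His-CtBP) was incubated with pinned compound 2 h at 37 deg C in dark, in 50 mM Tris pH 8.0 buffer with 300 mM NaCl. Glutathione donor and nickel acceptor beads followed; AlphaScreen signal read after 1 h.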
Active calls of the source: *; ? = inconclusive; . = no result given; [ ] = remark or other dose.

Keys: A = gsp agonist; B = Six1-Eya2 blk; C = D2 ag; D = gsp antag; E = D2 potentiator; F = CtBP-E1A blk
CCCN1C/C(=C/c2cccc([N+](=O)[O-])c2)C(=O)/C(=C/c2cccc([N+](=O)[O-])c2)C1
  A = -6%[15.4 µM]	B = -3	C = 0.9	D = -7%	E = -1	F = 0

O=C(CSc1n[nH]c(-c2ccncc2)n1)Nc1ccccc1C(F)(F)F
  A = 20%	B = 8	C = 0.4	D = -7%	E = -3	F = 4

CCOC(=O)C1=NNC(C(=O)c2ccccc2)C1c1ccc(Cl)cc1 (centres undefined)
  A = 9%	B = 0	C = -11	D = -9%	E = -14	F = -7

C=CCNC(=O)/C(C#N)=C/c1cn(-c2ccccc2)nc1-c1cccs1
  A = 7%	B = 7	C = 6.9	D = -9%	E = 15	F = 2

N#C/C(=C\c1cccs1)C(=O)Nc1nccs1
  A = -4%[15.4 µM]	B = -1	C = -2.4	D = -9%	E = -8	F = -2

CCOC(=O)C1CCN(c2ncnc3c2cnn3-c2ccc(OC)cc2)CC1
  A = 17%	B = -1	C = -0.9	D = ?	E = 7	F = -1

COc1ccc(C(=O)C(Sc2nnc(C)c(=O)[nH]2)c2ccc(OC)cc2)cc1 (centres undefined)
  A = ?	B = -4	C = -1.9	D = ?	E = -8	F = -2

CCCC(=O)N=C1SC2CS(=O)(=O)CC2N1c1ccc(CC)cc1 (centres undefined)
  A = 14%	B = 0	C = -2.7	D = 2%	E = 21	F = 0

Cc1ccc(N2C(=O)C3CCCN3C2=S)c(C)c1 (centres undefined)
  A = 22%	B = 7	C = 11	D = -2%	E = 0	F = 6

O=C(NC1CC1)c1ccc(-c2nc3ccccc3s2)s1
  A = -12%	B = -4	C = -2.2	D = 1%	E = -6	F = -9

N#Cc1nc(-c2cccc3ccccc23)oc1NCCN1CCOCC1
  A = ?	B = 0	C = -2.9	D = 10%	E = -12	F = 5

c1ccc(COn2c(-c3ccccc3)nc3c2CCc2nonc2-3)cc1
  A = -20%	B = -6	C = -1.1	D = -7%	E = 6	F = -7

Cc1ccc2nc(-c3ccc(O)cc3)oc2c1
  A = 19%	B = 1	C = 0.2	D = 0%	E = -3	F = -15

O=C(O)c1cccc(S(=O)(=O)NCc2cccs2)c1
  A = 7%	B = 5	C = -0.6	D = -1%	E = -1	F = 15

CCC1(c2ccccc2)NC(=O)N(CC(=O)NNC(=O)COc2ccc(Cl)cc2C)C1=O (centres undefined)
  A = -15%	B = 4	C = 1.8	D = 13%	E = -18	F = 2

The list goes on (5 carried over from the part before).
Keys: A = gsp agonist; B = Six1-Eya2 blk; C = D2 ag; D = gsp antag; E = D2 potentiator; F = CtBP-E1A blk
N#Cc1nc(-c2cccc3ccccc23)oc1NCCN1CCOCC1
  A = ?	B = 0	C = -2.9	D = 10%	E = -12	F = 5

c1ccc(COn2c(-c3ccccc3)nc3c2CCc2nonc2-3)cc1
  A = -20%	B = -6	C = -1.1	D = -7%	E = 6	F = -7

Cc1ccc2nc(-c3ccc(O)cc3)oc2c1
  A = 19%	B = 1	C = 0.2	D = 0%	E = -3	F = -15

O=C(O)c1cccc(S(=O)(=O)NCc2cccs2)c1
  A = 7%	B = 5	C = -0.6	D = -1%	E = -1	F = 15

CCC1(c2ccccc2)NC(=O)N(CC(=O)NNC(=O)COc2ccc(Cl)cc2C)C1=O (centres undefined)
  A = -15%	B = 4	C = 1.8	D = 13%	E = -18	F = 2

O=C1C=C(c2cc(C(F)(F)F)cc(C(F)(F)F)c2)C[C@@H](c2ccc(Cl)cc2)C1
  A = .	B = -4	C = -3.2	D = 2%	E = 0	F = -1

O=C(COc1ccccc1)N1CCN=C1SCc1cccnc1
  A = 9%	B = 3	C = -5.2	D = -10%	E = -10	F = -3

CCn1c(SCC(=O)Nc2ccc(N3CCOCC3)cc2)nnc1C1CC1
  A = ?	B = 2	C = 7.8	D = -2%	E = -6	F = 4

CCCn1c(SCC(=O)Nc2ccc(OCC)cc2)nnc1C(C)C
  A = 10%	B = 0	C = -0.1	D = 7%	E = 2	F = 4

O=C(Cc1ccccc1)NCCc1cn2ccsc2n1
  A = -28%	B = 2	C = -1.8	D = 9%	E = 2	F = 1

O=C(CN(C(=O)Cn1nnc(-c2ccc(F)cc2)n1)c1ccc(F)cc1)NC1CCCC1
  A = 3%[15.4 µM]	B = 3	C = -2.7	D = -15%	E = -4	F = 4

CC1=C(C(=O)N(C(C)C)C(C)C)CC(CC(=O)NC(c2ccccc2)c2ccccc2)C(=O)N1CCCN1CCCC1=O (centres undefined)
  A = .	B = 3	C = 2.5	D = .	E = -7	F = 1

CCCN1C(=O)/C(=C\c2ccncc2)SC1=Nc1ccccc1
  A = -2%	B = -10	C = -9.0	D = 5%	E = 2	F = -3

Cc1ccc(OCc2nc(-c3ccc(-n4cccc4)cc3)no2)cc1C
  A = ?	B = 3	C = -1.1	D = 9%	E = -9	F = 6

S=c1[nH]nc(COc2ccccc2)n1/N=C/c1ccc(Br)s1
  A = -56%[inhibitor]	B = -12	C = -4.3	D = -14%	E = -8	F = 2

O=C(CCCCC(=O)NC1CCCC1)NC1CCCC1
  A = 23%	B = 4	C = 2.7	D = 6%	E = -8	F = -5

CCOC(=O)C1(P(=O)(c2ccc(Cl)cc2)c2ccc(Cl)cc2)CCC1
  A = 8%	B = 1	C = -0.9	D = 6%	E = -7	F = 2

COc1ccc(C(=O)NNC(=O)c2ccc(C(C)(C)C)cc2)cc1
  A = ?	B = 32	C = 4.9	D = 13%	E = 7	F = 2

CCN(CC(=O)Nc1c(F)cccc1F)C(=O)c1ccccc1F
  A = 2%	B = 8	C = -1.6	D = 3%	E = -6	F = .

CCOc1ccc(C(=O)Nc2ccccc2CC)cc1[N+](=O)[O-]
  A = -1%[15.4 µM]	B = -5	C = -0.8	D = 6%	E = -10	F = 13

(list continues)
Keys: A = gsp agonist; B = Six1-Eya2 blk; C = D2 ag; D = gsp antag; E = D2 potentiator; F = CtBP-E1A blk
CC12CCC(C(=O)NCc3ccco3)(OC1=O)C2(C)C (centres undefined)
  A = 8%	B = 4	C = -2.2	D = 10%	E = -1	F = 4

Cc1cc(C)c(-n2[nH]nnc2=S)c(C)c1
  A = 16%	B = 1	C = 3.5	D = 1%	E = 3	F = .

O=C1N(Cc2ccc(F)cc2)CCN1c1ccc(F)cc1
  A = -4%	B = 4	C = -5.7	D = 4%	E = -6	F = 4

CCN(CC)c1ccc(/C=C(/C#N)C(=O)NCc2ccccc2)o1
  A = -1%	B = -4	C = -3.4	D = -11%	E = -36	F = 10

Cc1ccc2nc(-c3ccco3)c(Cc3cccc(F)c3)n2c1
  A = .	B = -7	C = -2.0	D = .	E = -6	F = 1

NC(=O)C1CCN(C(=O)Nc2ccccc2)CC1
  A = 9%	B = 4	C = 0.1	D = 19%	E = 16	F = 5

CC1(NC(=O)NCc2ccccc2)CCS(=O)(=O)C1 (centres undefined)
  A = -6%	B = -5	C = -2.4	D = 10%	E = -3	F = .

O=C(COc1ccc(Br)cc1)Nc1ccncc1
  A = -6%	B = 9	C = 3.7	D = -3%	E = 9	F = 0

Cc1cc(C)n2nc(SC(C)C(=O)N3CCCC3)nc2n1 (centres undefined)
  A = 21%	B = 5	C = -2.4	D = 10%	E = 15	F = -19

COc1ccc2nc(C)cc(Nc3ccccc3O)c2c1
  A = -17%	B = -3	C = 1.8	D = 5%	E = -9	F = .

COc1ccccc1C(=O)N/C(=C\c1cn(C)c2ccccc12)C(=O)N1CCOCC1
  A = -26%	B = 0	C = -3.9	D = ?	E = -5	F = 0

CCOc1ccc2oc(C(=O)OCC(=O)NC3CCCC3)c(C)c2c1
  A = 16%	B = 0	C = 0.5	D = 1%	E = -2	F = 10

COc1ccc(C(=O)Nc2ccc(-c3cn4ccsc4n3)cc2)cc1S(=O)(=O)N1CCOCC1
  A = -13%	B = -77*	C = -0.7	D = 4%	E = -7	F = -73*

COc1ccccc1CCNC(=O)CSc1nc(-c2ccco2)cc(C(F)(F)F)n1
  A = 8%	B = 0	C = -7.1	D = -12%	E = -10	F = 2

COc1cccc(N2C(=O)C(CC(=O)Nc3ccc(F)cc3)N(C3CCCCC3)C2=O)c1 (centres undefined)
  A = -23%	B = 13	C = 0.8	D = -8%	E = -5	F = -1

Continued:
Keys: A = gsp agonist; B = Six1-Eya2 blk; C = D2 ag; D = gsp antag; E = D2 potentiator; F = CtBP-E1A blk
NC(=O)CC(NC(=O)Cc1ccc(Br)cc1)c1ccc(N2CCCCCCC2)c([N+](=O)[O-])c1 (centres undefined)
  A = 13%	B = -3	C = -0.2	D = 4%	E = -7	F = -2

CCc1ccc(CN2CCC(n3nccc3NC(=O)c3ccccc3C)CC2)cc1
  A = -18%	B = -13	C = -7.5	D = 1%	E = -40	F = -9

COc1ccccc1NS(=O)(=O)c1ccc(OC)c(OC)c1
  A = -13%	B = 6	C = -1.2	D = 19%	E = -7	F = 4

Cc1ccc(C(=O)N(CC(=O)NC2CCCC2)Cc2cccs2)s1
  A = 13%	B = 8	C = -2.1	D = -6%	E = -18	F = -9

COc1ccc(C2c3[nH]c4ccccc4c3CCN2Cc2ccoc2)c(F)c1 (centres undefined)
  A = 17%	B = -22	C = -2.3	D = -14%	E = -22	F = -13

COc1ccc(CCN2CC(C(=O)N(C)CC(=O)Nc3ccc(Cl)c(C(F)(F)F)c3)CC2=O)cc1OC (centres undefined)
  A = 8%[15.4 µM]	B = -1	C = -1.9	D = -20%	E = -10	F = 1

CC(=O)Nc1ccc(NC(=O)CSc2nccn2Cc2ccc(Cl)cc2)cc1
  A = 16%	B = -1	C = -2.7	D = -2%	E = -9	F = -6

Cc1cc(=O)n2nc(N3CCCC3C(=O)NCc3ccccn3)sc2n1 (centres undefined)
  A = -2%	B = -1	C = -1.5	D = 7%	E = -1	F = 0

C=CCCC(=O)N1C[C@H]2CON(C)[C@H]2C[C@H]1c1cccc(Nc2ccccc2)c1
  A = .	B = -2	C = 1.0	D = 6%	E = -2	F = -2

O=C1ON=C(c2ccccc2)/C1=C/c1cccnc1
  A = 14%	B = 5	C = -6.2	D = 11%	E = -2	F = -6

CS(=O)(=O)c1ccccc1-c1nnc(NC(=O)c2ccc(S(=O)(=O)N3CCCC3)cc2)o1
  A = -3%	B = ?	C = -5.6	D = 4%	E = 20	F = -19

COC(=O)COc1ccc2c(-c3ccc(OC)cc3)cc(=O)oc2c1
  A = 10%	B = 8	C = -1.1	D = -1%	E = 13	F = -7

Cc1cc2oc(C(=O)Nc3ccc(S(=O)(=O)Nc4nccs4)cc3)cc(=O)c2cc1Cl
  A = -63%[inhibitor]	B = -18	C = -2.3	D = -3%	E = -3	F = -3

Part of the list above, as comma-separated lines:
Compound,gsp agonist,Six1-Eya2 blk,D2 ag,gsp antag,D2 potentiator,CtBP-E1A blk
COc1ccc(C2c3[nH]c4ccccc4c3CCN2Cc2ccoc2)c(F)c1 (centres undefined),17%,-22,-2.3,-14%,-22,-13
COc1ccc(CCN2CC(C(=O)N(C)CC(=O)Nc3ccc(Cl)c(C(F)(F)F)c3)CC2=O)cc1OC (centres undefined),8%[15.4 µM],-1,-1.9,-20%,-10,1

Bioassay records (PubChem)
